# High-throughput results (PubChem BioAssay)
# NPYLR7 agonist: mosquito NPYLR7 agonism. HEK293T NPYLR7/Galpha15, GCaMP6s calcium fluorescence. activation, % at 10 µM. 270,000 tested, 0.15% active; in the data active means activation above about 40%;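 further: 0% = vehicle and 100% = reference agonist at the receptor; some compounds past the cut are filed as inactive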
# NPYLR7 agonist max-min: recorded beside NPYLR7 agonist, whose call it bears; activation, %; measured here: Max-Min RFU normalised activation; some inactives read as strong as hits;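 span of the calcium signal over five minutes; 0% = vehicle and 100% = native peptide agonist; compound fluorescence can raise it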
# An asterisk follows results filed as active; & = joins results of further samples. Some of the compounds tested; the hit share may differ from the screen's.
SMILES,NPYLR7 agonist,NPYLR7 agonist max-min
CCC(=O)N1CCC1(C)C(=O)Nc1ccc2nc(C)ccc2c1 (stereo unspecified),-3,-4
Cc1ccc(O)c(C(=O)c2cnn(C(=O)COc3cc(C)on3)c2)c1,8,2
CCCCCc1ccc(C(=O)N2CCC3(CC2)C(=O)N(CC(=O)Nc2ccc(C)c(C)c2)CN3c2ccccc2)cc1,-3,3
CC(C)Nc1ncc(CN2CC[C@@H](c3ccc(F)cc3)[C@H](O)C2)cn1,5,0
O=C1c2ccccc2C(=O)N1c1n[nH]c(CCc2ccccc2)n1,1,1
CCOc1cc(C2NC(=O)NC(C)=C2C(=O)OC(C)C)ccc1O (stereo unspecified),-3,-4
CSc1c(C#N)c(SCC(=O)c2cc3ccccc3oc2=O)[nH]c(=O)c1C#N,4,3
COc1ccc(/C=C2\C=C(c3ccccc3)N(c3ccc(Nc4ccccc4)cc3)C2=O)cc1Br,11,14
CN1CCN(C(=O)C2CCN(S(=O)(=O)c3cnc[nH]3)CC2)CC1,4,4
Cc1cccc(NC(=O)CSc2nc3c(c(=O)n2-c2cc(C)cc(C)c2)SCC3)c1,-3,-10
Cc1nc(SCc2cccc(C(=O)NCc3ccco3)c2)nc(N2CCN(c3ccccc3F)CC2)c1C,11,12
O=C(O)C1(CC2CCCCO2)CCN(c2ccc3cccc(Cl)c3n2)CC1 (stereo unspecified),6,4

# In another format: two of the compounds above
Structure | NPYLR7 agonist | NPYLR7 agonist max-min
CC(C)Nc1ncc(CN2CC[C@@H](c3ccc(F)cc3)[C@H](O)C2)cn1 | 5 | 0
O=C1c2ccccc2C(=O)N1c1n[nH]c(CCc2ccccc2)n1 | 1 | 1

# (next part)
SMILES,NPYLR7 agonist,NPYLR7 agonist max-min
Cc1ccc2c(c1)oc(=O)n2C1CCN(C(=O)c2ccc(C#N)cc2)CC1,25,20
O=C1CCCc2nc(N3CCOCC3)sc21,3,1
CC1CCCCC1NC(=O)c1cc(Br)ccc1F (stereo unspecified),5,-1
FC(F)Oc1ccccc1-c1nccn1CCCc1cccnc1,5,3
COc1cn(CC(=O)NC2CCCC2)c(CSc2ncccn2)cc1=O,-3,-8
CC(C)(CCl)C(=O)N1CCC2(CC1)SCCN2C(=O)c1ccc(C(F)(F)F)cc1,-3,10
Cc1cc(NC(=O)Cn2cc(-n3cccc3)cn2)no1,2,26
CCOC(=O)C1(Cc2ccccc2C)CCCN(C(=O)c2csc(SC)n2)C1 (stereo unspecified),-3,13
CCN(C)S(=O)(=O)Nc1c(C)noc1C,-1,-9
COC(=O)c1ccc(CN2C(=O)C(Cc3ccccc3)ON=C2C)o1 (stereo unspecified),-1,-2
Cc1nc(CCCC(=O)Nc2ccc3n[nH]nc3c2)cs1,3,1
COc1ccc(C(C)NC(=O)c2ccco2)cc1F (stereo unspecified),2,0
CC1(C)/C(=C/c2csnn2)C(=O)c2ccccc21,-7,-8
O=C(CCNC(=O)c1ccsc1)Nc1ccc(N2CCCC2)nc1,2,-3
COCCCNC(=O)CN1CC2=C(C1=O)C(c1ccc(C(C)(C)C)cc1)NC(=O)N2C (stereo unspecified),-1,5
CCCS(=O)(=O)N1CCN(c2ncnc3c2nnn3CC)CC1,1,2
O=C(CNC(=O)c1ccccc1F)N=Nc1c(O)n(CCc2ccccc2)c2ccccc12,14,-2
CCOCCOc1nc(-c2cccc(F)c2)n(-c2ccc(NC(=O)c3ccc(Cl)c([N+](=O)[O-])c3)cc2)n1,13,13
Cc1csc(SCc2cc(=O)c(OC(=O)c3ccc(C(C)(C)C)cc3)co2)n1,-4,-1
CN(C)CC1(O)CCCN(C(=O)CCOc2ccccc2)C1 (stereo unspecified),-4,-8
Nc1nc(Nc2ccc3ncsc3c2)cc(N2CCC[C@H]2C(=O)NCc2cccs2)n1,3,2
CCCCC(=O)N(CCCC)c1c(N)n(CCC)c(=O)[nH]c1=O,11,11
CC(N=Cc1ccccc1O)C12CC3CC(CC(O)(C3)C1)C2 (stereo unspecified),-6,-13
COc1ccc(C(=O)Nc2c(C)c(C)c3c(c2C)NC(=O)CO3)c(OC)c1OC,10,4
Cc1cccc(C(=O)N2C(C(=O)NC3CC3)COC23CCN(C(=O)C2CC2)CC3)c1 (stereo unspecified),-1,5
O=C(c1sccc1S(=O)(=O)N1CCCC1)N1CCOC(C(F)(F)F)C1 (stereo unspecified),-6,-8
Cc1[nH]n(-c2ccccc2)c(=O)c1N=Nc1ccc(OC(F)F)cc1,-7,-9
O=S(=O)(c1ccc(F)cc1)N1CCC2(CC1)OCCO2,-1,-2
Cn1ccc2c(C(=O)NCc3cc(F)cc4c3OCOC4)cccc21,-7,-6
CCCC(C)c1nnc(NC(=O)Cc2nc3nc(C)cc(C)n3n2)s1 (stereo unspecified),19,6
Cc1ccc(N(Cc2ccco2)S(=O)(=O)c2ccc(Br)cc2)cc1,4,2
O=C(O)c1cc2n(n1)CCN(Cc1cccc(F)c1)C2=O,-9,-4
Cc1ccc(Cc2ccccc2C(=O)N2CCc3c(nc(C)[nH]c3=O)C2)cc1,5,2
O=S(=O)(c1ccccc1)C1(c2ccccc2)OCCO1,2,5
COc1ccc(C(=O)NC(=S)NCC2CCCO2)cc1 (stereo unspecified),9,10
c1ccc(CSc2nc3ccccc3[nH]2)cc1,-2,-2
C(=N/Nc1nc(N2CCCC2)nc(N2CCOCC2)n1)/c1cccnc1,-3,-10
Cc1ccc(N2CCN(S(=O)(=O)c3ccc4[nH]cc(C(=O)O)c(=O)c4c3)CC2C)cc1 (stereo unspecified),-7,-14
CCOC(=O)C1=C(C)N=c2s/c(=C/c3ccc4c(c3)OCO4)c(=O)n2C1c1ccc(Cl)cc1 (stereo unspecified),-10,-13
O=C(Nc1nncs1)c1c(F)c(F)c(F)c(F)c1F,3,3
CCc1nnc(NC(=O)[C@H](C)NS(=O)(=O)c2c(C)noc2C)s1,1,-6
CC(=O)N[C@H]1CCN(C(=O)c2cc3occc3n2CC2CC2)C1,23,17
CCOC(=O)c1sc(N2C(=O)C(O)=C(C(=O)c3ccco3)C2c2ccccc2)nc1C (stereo unspecified),0,-2
CCOC(=O)c1nn(Cc2ccccc2)c2c1CN(Cc1ccc(Sc3nncn3C)o1)CC2,17,8
CCOC(=O)C1=C(C)N(C)C(=O)NC1c1ccccc1[N+](=O)[O-] (stereo unspecified),-1,-6
COc1ccc2nc(C)cc(Sc3nnnn3C)c2c1,3,4
COCc1nc(C)nc(N2CCN(C(=O)c3ccccc3F)CC2)c1Cc1ccc(OC)cc1,7,9
CCc1[nH]n(-c2cc(C)ccc2C)c(=O)c1C1=C(N2CCCCC2)C(=O)N(c2ccc(F)cc2)C1=O,3&-9,18&-2
O=c1[nH]c(C2CC2)nc2ccc(-c3cccc(C(F)(F)F)c3)cc12,7,4
O=C(Cn1ccc(C(F)(F)F)n1)Nc1nc(-c2ccco2)c(-c2ccco2)s1,2,11
Cc1ccc(S(=O)(=O)NC(C(=O)N=c2sccn2C)C(C)C)cc1 (stereo unspecified),6,5
C=CCOC(CN1CCN(C(=O)COCCOC)CC1)c1cccc(N2CCCC2)c1 (stereo unspecified),-3,0
CCc1nn(-c2ccc(F)cc2)c(Oc2ccccc2)c1CN(Cc1ccco1)CC(C)O (stereo unspecified),3,1
CN1C[C@H](Oc2ccccn2)[C@]2(CCN(S(C)(=O)=O)C2)S1(=O)=O,4,4
C=CCn1c(SCc2cc(=O)c(O)co2)nc2sc(C)c(C)c2c1=O,0,-3
COc1ccc(CCNC(=O)N2CCN(C(c3ccccc3)c3ccc(Cl)cc3)CC2)cc1 (stereo unspecified),18,12
CC(C)(C)NC(=O)N1CCCC(C(=O)c2ccc(C(F)(F)F)cc2)C1 (stereo unspecified),3,-11
O=C(CNC(=O)c1cccc(Cl)c1)N=Nc1c(O)[nH]c2ccccc12,-3,-10
CCCNC(=O)CC1CSc2nc(C)cc(=O)n21 (stereo unspecified),-1,-3
COCc1c(Br)c(C)nc(OCC(=O)N/N=C\c2ccc(-c3cccc(C(=O)O)c3)o2)c1C#N,4,6

# Continued.
SMILES,NPYLR7 agonist,NPYLR7 agonist max-min
COc1ncc(-c2ccc(NC(C)=O)cc2)c(OC)n1,1,-9
CCN(CC)S(=O)(=O)NCc1ccc(OC(F)F)cc1,9,6
CCc1nn2c(nnc3c(=O)n(CC)ccc32)c1-c1ccc(Cl)cc1,4,3
CCOC(=O)c1ccc(N2C(=N)S/C(=C\c3ccccc3OC(C)C)C2=O)cc1,-2,-3
CCc1ccccc1N1CCN(Cc2ccc(C(=O)OC)cc2)C(C)C1=O (stereo unspecified),18,17
O=C(O)c1cccnc1CN1CCC(O)(c2ccc(F)cc2)CC1,4,4
CNC(=O)C1Cc2ccccc2N1S(=O)(=O)c1ccc(OC)c(C)c1 (stereo unspecified),19,15
Cc1cccc(C2=NN3C(=N)/C(=C\c4ccc([N+](=O)[O-])o4)C(=O)N=C3S2)c1,-1,-2
CCOC(=O)c1cnc(C)nc1NCCCN(C)c1ccccc1,17,21
O=C(Nc1ccccc1C(=O)NCC1CCCO1)c1ccc([N+](=O)[O-])cc1 (stereo unspecified),5,0
Cc1c(N=Nc2ccc(N(C)C)cc2)c(=O)n(-c2ccccc2)n1C,-1,-2
CC1c2ccc(F)cc2CCN1C(=O)CN1CCc2sccc2C1 (stereo unspecified),0,0
CC(NC(=O)NCC1Cc2ccccc2O1)c1cccs1 (stereo unspecified),-1,-4
CC(=O)Nc1ccc(CNC(=O)CCC(=O)c2cc(C)sc2C)cc1,12,10
CCN(CC)CCNc1nc2c(F)cccc2s1,4,5
CCOc1ccc(S(=O)(=O)NCCc2sc3nc(-c4ccc(F)cc4)nn3c2C)cc1,5,4
Cc1cc(Br)c2c(c1)C(=O)C(=O)N2,-1,-3
CN(CC(=O)NC(C)(C)C)Cc1c(O)ccc2cc(Br)ccc12,17,7
Cc1c(Br)c([N+](=O)[O-])nn1CC(N)=O,-4,-8
COCCCN(Cc1c(C)nn(-c2ccccc2)c1N1CCN(C)CC1)C(=O)Cc1cccs1,3,15
COc1ccc(Oc2cc(N3CCN(C(=O)C4CCC4)C(C)C3)ncn2)cc1 (stereo unspecified),3,2
Cc1ccc(NC(=O)Nc2ccc(N3CCCC3)c(C(=O)NCC(C)C)c2)cc1,8,9
Cc1cccn2c(=O)c(/C=N\O)c(Nc3ccc(Cl)cc3)nc12,-2,-5
O=C(c1ccc(N2CCOC(C(F)(F)F)C2)nc1)N1CCOCC1 (stereo unspecified),0,-1
CCCCCn1cc(C2CCN(C(=O)c3ccc(OC)c(OC)c3)CC2)c2ccccc21,6,11
O=C(N/N=C\c1ccco1)c1cc(-c2ccc3c4c(cccc24)CC3)n[nH]1,15,17
O=C(CN1C(=O)NC2(CCCC2)C1=O)Nc1cc(Cl)ccc1N1CCCC1,2,1
O=C(Nc1ccc(F)cc1)C(C1CCCC1)N1CCN(C(=O)c2ccccc2Cl)CC1 (stereo unspecified),-7,-9
Cc1nn(C(C)(C)C)c(OC(=O)Cc2ccc(F)cc2)c1S(=O)(=O)c1ccccc1,2,42
CCCC(C)(C)NC(=O)c1cc(=O)[nH]c2c(Br)cccc12,0,32
CC(C)CCS(=O)(=O)CC(=O)Nc1ccc(=O)n(C)c1,4,3
CCCCc1ccc(-c2ccc(-n3cncc3C(=O)NCCSCc3c(Cl)cccc3Cl)cc2)cc1,16,-1
COCCN1CCCC(Nc2nc3ccccc3cc2CO)C1 (stereo unspecified),12,3
CCC(C)N(CC(=O)N(CCc1ccc(OC)c(OC)c1)Cc1ccco1)C(=O)Nc1ccc(C)cc1C (stereo unspecified),-9,-6
CN(Cc1ccccc1)c1cc(-c2ccccc2)nc(SCc2cccc(C(=O)NCc3ccccn3)c2)n1,8,12
Cc1nn(C)cc1CN1CCOc2ccc(CN3CCC(OCc4ccccc4)CC3)cc2C1,26,11
Cc1nc2ccc(F)cc2n1C1CCN(C(=O)c2cccc(Cl)n2)CC1,7,14
COc1cccc(OC)c1-c1nccn1CCNc1ccccc1,-3,-7
CC(C)=CC(=O)NCC1CCN(Cc2c(C)nn(C)c2Cl)C1 (stereo unspecified),9,2
Cc1cccnc1CN1CCN(S(=O)(=O)NCc2ccccc2)CC1,6,4
CN1N=C(C(=O)Nc2ccc(NC(=O)c3ccc(F)cc3)cc2C(F)(F)F)CCC1=O,16,14
COc1cccc(CSc2nnc(CNC(=O)Nc3ccccc3Br)n2-c2cc(Cl)ccc2Cl)c1,1,2
CC(C)NC(=O)[C@@H]1C[C@H](N)CN1C(=O)CCn1cc(Cl)cn1,11,8
Cc1ccc(C2c3ccccc3CCN2C(=O)COc2ccccc2)cc1 (stereo unspecified),17,11
O=C(c1cc(-c2cccc(Cl)c2)n[nH]1)N1CCOc2ccccc21,2,-1
C1CC(OC2CCOC2)CCN1 (stereo unspecified),-17,-17
CCN1CCN(C(=O)C2(O)CCCC2)CC1,0,-7

# 15 of the compounds above, tab-delimited.
canonical_smiles	NPYLR7 agonist	NPYLR7 agonist max-min
COCCN1CCCC(Nc2nc3ccccc3cc2CO)C1 (stereo unspecified)	12	3
CCC(C)N(CC(=O)N(CCc1ccc(OC)c(OC)c1)Cc1ccco1)C(=O)Nc1ccc(C)cc1C (stereo unspecified)	-9	-6
CN(Cc1ccccc1)c1cc(-c2ccccc2)nc(SCc2cccc(C(=O)NCc3ccccn3)c2)n1	8	12
Cc1nn(C)cc1CN1CCOc2ccc(CN3CCC(OCc4ccccc4)CC3)cc2C1	26	11
Cc1nc2ccc(F)cc2n1C1CCN(C(=O)c2cccc(Cl)n2)CC1	7	14
COc1cccc(OC)c1-c1nccn1CCNc1ccccc1	-3	-7
CC(C)=CC(=O)NCC1CCN(Cc2c(C)nn(C)c2Cl)C1 (stereo unspecified)	9	2
Cc1cccnc1CN1CCN(S(=O)(=O)NCc2ccccc2)CC1	6	4
CN1N=C(C(=O)Nc2ccc(NC(=O)c3ccc(F)cc3)cc2C(F)(F)F)CCC1=O	16	14
COc1cccc(CSc2nnc(CNC(=O)Nc3ccccc3Br)n2-c2cc(Cl)ccc2Cl)c1	1	2
CC(C)NC(=O)[C@@H]1C[C@H](N)CN1C(=O)CCn1cc(Cl)cn1	11	8
Cc1ccc(C2c3ccccc3CCN2C(=O)COc2ccccc2)cc1 (stereo unspecified)	17	11
O=C(c1cc(-c2cccc(Cl)c2)n[nH]1)N1CCOc2ccccc21	2	-1
C1CC(OC2CCOC2)CCN1 (stereo unspecified)	-17	-17
CCN1CCN(C(=O)C2(O)CCCC2)CC1	0	-7
